Screening results deposited in PubChem by National Center for Advancing Translational Sciences (NCATS).
Rango-impB inh: Rango-importin beta binding inhibition. Q14974. Rango CFP/YFP FRET sensor + importin beta, 45 min. Potency, µM (doses to about 92.2 µM), without a hit: at the top dose inhibition of complex formation. 340,000 tested, 0.031% active; active = rising FRET ratio curve, often small or poorly fitted; inconclusive = mostly compound fluorescence or quenching in the first reads; inactive = flat curves in all reads;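 further: potency means the concentration at half of the fitted maximal effect; 0% = DMSO wells and 100% = buffer wells lacking importin beta; nearly all actives have a fitted effect of over 15% in size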
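FRET biosensor Rango (snurportin 1 IBB between N-terminal EYFP and C-terminal Cerulean), 50 nM in PBS/1 mM DTT/0.02% Tween-20/0.1% BSA, preincubated 5 min RT with compound; 0.125 microM importin beta added, 45 min RT, CFP/YFP FRET ratio read.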
GLA inh pH 4.5: alpha-galactosidase A (human) inhibition, pH 4.5; activity change, negative = inhibition, % at 105 µM; 230,000 tested, under 10 active; purified enzyme, 4-MU-alpha-Gal fluorescence, pH 4.5; AID 1467; inconclusive = small, poorly fitted or top-dose-only inhibition, or a rising curve; inactive = flat fitted curve, though single readings scatter; no compound was filed as active;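 further: 0% = full activity with enzyme and -100% = basal without enzyme; dose as in the result columns while the protocol names 77 µM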
Target sequence (P06280 whole entry, looked up): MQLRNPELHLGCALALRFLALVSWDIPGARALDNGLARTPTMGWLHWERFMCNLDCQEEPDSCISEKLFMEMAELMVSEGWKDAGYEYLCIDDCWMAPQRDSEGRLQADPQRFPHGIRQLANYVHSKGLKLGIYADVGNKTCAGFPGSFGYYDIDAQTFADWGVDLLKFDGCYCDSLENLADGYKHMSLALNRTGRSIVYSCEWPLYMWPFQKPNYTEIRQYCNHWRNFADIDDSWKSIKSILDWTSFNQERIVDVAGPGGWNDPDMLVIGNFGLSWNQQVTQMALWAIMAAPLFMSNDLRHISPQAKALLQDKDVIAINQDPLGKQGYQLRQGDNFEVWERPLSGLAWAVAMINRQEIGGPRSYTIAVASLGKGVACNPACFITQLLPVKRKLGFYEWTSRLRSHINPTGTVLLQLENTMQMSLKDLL
Rango dissoc inh: inhibition of RanGTP-driven Rango-importin beta dissociation; Potency, µM (top dose mostly 46.1 µM), inactives show top-dose activity change, negative = inhibition; AID 540253; 340,000 tested, 0.071% active; Biochemical FRET Rango-importin beta, RanGTP-induced dissociation; O95149+P62826; active means falling FRET ratio curve, often poorly fitted, with flat reads before Ran was added; inconclusive means other falling curves, or compound fluorescence or quenching; inactive means flat or rising ratio curve;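 further: potency means the concentration at half of the fitted maximal effect; % of control where 0% means no effect; nearly all actives have a fitted effect of over 45% in size; -100% = wells without RanGTP and RCC1; the record marks most hits as doubtful in a second field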
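Quantitative HTS using a FRET biosensor: 0.1 uM Rango, 0.25 uM importin beta, 0.6 uM Ran, 2 mM GTP, 0.2 uM RCC1 final, PBS with DTT, Tween-20 and BSA. Post-read taken 45 min after Ran addition.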
miR-21 FLuc: miR-21 reporter, rising signal; HeLa miR-21 FLuc reporter, luciferase, 48 h; Potency, µM (top dose mostly 38.3 µM), for inactives: at the highest dose reporter change, positive = more light; 340,000 tested, under 10 active; active = well fitted rising curve with a large enough effect; inconclusive = small, poorly fitted or top-dose-only effect; inactive = no such curve, though single readings can be large or run the other way;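 further: % of control where 0% means no effect; miR-21 action dims this reporter so a rising signal means less miR-21 action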
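Using DMEM plus 10% FBS, HeLa miR-21-FLuc cells are incubated with test compounds (final up to about 40uM) for 48 hours; firefly luciferase signal is then imaged following reagent-mediated lysis.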
Starred values were filed as active, the others as inactive; ? = inconclusive; . = not tested or not shown; & = joins results of further samples.

#	Rango dissoc inh	SMILES	Rango-impB inh	GLA inh pH 4.5	miR-21 FLuc
1	-10.8%	O=C(COc1ccc(F)cc1Cl)NC1CCCCCC1	-0.3%	.	.
2	6.5%	COc1ccc(S(=O)(=O)N2CCCCCC2)cc1C(=O)OCc1cccc(OC)c1OC	0.6%	.	.
3	-1.1%	CC(C)(C)OC(=O)C[C@@H]1C/C=C\C[C@@H](CC(=O)N(CCO)Cc2ccccc2)C(=O)N[C@@H](c2ccccc2)COC1=O	-3.5%	.	.
4	-9.9%	COc1ccc(NC(=O)CCn2cccc2)c(OC)c1	3.0%	-2.6	-3.8%
5	-11.5%	CC(=O)C1=C(O)C(=O)N(CCc2c[nH]c3ccccc23)C1c1ccco1 (configuration not stated)	?	6.3	-1.5%
6	11.0%	O=S(=O)(c1ccc(NCCOc2ccccc2)nc1)N1CCCC1	-5.0%	.	.
7	0.8%	NS(=O)(=O)c1ccc(CCNC(=O)COC(=O)C2CCN(c3ccc(C(F)(F)F)cn3)CC2)cc1	-0.3%	.	.
8	2.8%	COc1cccc(-c2nn(-c3ccccc3)cc2C(=O)OCC(=O)Nc2ncc(Cl)cc2Cl)c1	-3.1%	-8.1	0.2%
9	1.5%	O=S(=O)(Nc1ccc2c(c1)OCO2)c1cccs1	0.1%	0.6	-4.6%
10	1.9%	O=C(NC(Cc1c[nH]c2ccccc12)C(=O)N/N=C/c1cccnc1)c1cccs1 (configuration not stated)	1.2%	-7.3	14.0%
11	1.3%	O=C(c1ccc(Cl)cc1)N1N=C(c2ccccn2)CC1(O)C(F)(F)F (configuration not stated)	-0.7%	3.9	21.2%
12	8.4%	CCN(CC)C(=O)Oc1ccnc2cc(Cl)ccc12	-1.4%	5.6	-4.9%
13	-8.4%	CC(C)(C)N(NC(=O)Nc1ccc(F)cc1)C(=O)c1ccccc1	7.1%	0.2	0.7%
14	19.2%	COCCCN1C(=O)c2ccc(C(=O)Nc3ccccc3Cl)cc2C1=O	-0.9%	.	-1.1%
15	3.7%	CCOc1ccc(NC(=S)NC(C)CCc2ccccc2)cc1 (configuration not stated)	1.9%	0.8	0.0%
16	-1.4%	COc1cc(CN2CCSCC2)c([N+](=O)[O-])cc1OC	-1.2%	.	3.5%
17	-9.7%	COc1ccc(CNC(=O)COc2cccnc2[N+](=O)[O-])cc1	-0.5%	.	-15.0%
18	-0.5%	COc1ccc(C(NC(=O)c2ccc(F)cc2)c2ccccc2)cc1 (configuration not stated)	9.5%	7.9	-7.0%
19	18.9%	COC(=O)CCC(=O)c1oc2ccc(Br)cc2c1N	-8.0%	3.7	-50.4%
20	8.4%	O=[N+]([O-])c1cccc(/C=N/Nc2ccccn2)c1	-3.5%	0.2	-33.2%
21	0.2%	COc1cc([N+](=O)[O-])ccc1NC(=O)/C=C\C(=O)O	-0.1%	-1.1	1.2%
22	-13.5%	O=S(=O)(NCCCc1ccccc1)c1ccccc1	5.8%	-7.3	-1.6%
23	3.6%	Cc1cc(C)c[n+](CC(=O)c2ccc(C)c([N+](=O)[O-])c2)c1	1.6%	.	1.8%
24	-15.8%	COc1ccc(C(CNC(=O)c2cccc(NS(=O)(=O)c3ccc(Br)cc3)c2)N(C)C)cc1 (configuration not stated)	6.1%	.	.
25	-9.8%	C[C@H](CO)N1C[C@H](C)[C@@H](CN(C)S(=O)(=O)c2cccs2)Oc2ccc(NC(=O)c3ccncc3)cc2C1=O	-0.1%	.	.
26	-7.4%	Cc1cc[n+](-c2ccccc2)c2ccccc12	0.7%	-4.2	15.9%
27	24.2%	CC1CCN(C(=O)Cn2ncc3c4ccccc4n(C)c3c2=O)CC1	0.1%	6.0	-11.7%
28	?	COC(=O)C1CCN(C(=O)c2ccc(OC)c(S(=O)(=O)N3CCCc4ccccc43)c2)CC1	2.5%	.	.
29	-20.4%	CCCN=C(C)C1=C(O)c2ccccc2C1=O	2.7%	-6.7	-56.0%
30	8.5%	COc1cccc(NS(=O)(=O)c2nc3nc(C)cc(C)n3n2)c1	-0.7%	5.9	-6.5%

Arranged by value in GLA inh pH 4.5 (smallest number first): some entries from above.
#	Rango dissoc inh	SMILES	Rango-impB inh	GLA inh pH 4.5	miR-21 FLuc
29	-20.4%	CCCN=C(C)C1=C(O)c2ccccc2C1=O	2.7%	-6.7	-56.0%
26	-7.4%	Cc1cc[n+](-c2ccccc2)c2ccccc12	0.7%	-4.2	15.9%
21	0.2%	COc1cc([N+](=O)[O-])ccc1NC(=O)/C=C\C(=O)O	-0.1%	-1.1	1.2%

(further entries)
#	Rango dissoc inh	SMILES	Rango-impB inh	GLA inh pH 4.5	miR-21 FLuc
31	-8.3%	Cc1cc(C(=O)COC(=O)Cc2n[nH]c(=O)c3ccccc23)c(C)n1-c1ccc2c(c1)OCO2	-2.5%	2.8	5.6%
32	1.3%	O=C(C1=C[C@H](C2CC2)C[C@H](OCCCCO)O1)N1CCOCC1	-4.6%	-2.8	1.4%
33	10.0%	Cc1ccsc1C(=O)OCC(=O)N1CC(C)CC(C)C1 (configuration not stated)	-1.2%	.	.
34	1.5%	Cc1ccccc1OCCN1CCC(Cc2ccccc2)CC1	-0.2%	-1.1	-4.3%
35	0.6%	Cc1cc(C(=O)CC#N)c(C)n1-c1ccc(OC(F)F)cc1	1.1%	-3.8	3.2%
36	0.3%	Cc1c(N=Cc2ccco2)c(=O)n(-c2ccccc2)n1C	4.5%	7.6	-1.9%
37	-13.0%	COc1cccc(CNC(=O)c2ccc(C3SCCS3)cc2)c1	7.9%	.	-30.6%
38	4.6%	C=CCC[C@@H](Cc1ccc(F)cc1)C(=O)OCCNC(=O)[C@H](CC=C)CC(=O)NCCO	4.5%	.	.
39	18.1%	O=S1(=O)CCN(Cc2cccc(C(F)(F)F)c2)CC1	-1.8%	-1.3	1.6%
40	4.9%	CCCCCCSc1ccc([C@@H]2[C@H]3C(=O)N(C)C(=O)[C@H]3[C@]3(C(=O)OC)CCCCN23)cc1	-3.3%	.	.
41	60.6%	O=C(Nc1ccc(Nc2ccccc2)cc1)c1ccccc1F	3.4%	.	-39.7%
42	-8.2%	O=C(NCCc1ccc(F)cc1)c1ccc(Cl)c(S(=O)(=O)N2CCOCC2)c1	-2.0%	.	.
43	-4.4%	COc1cc(CC(=O)OCC(=O)Nc2ccccc2C#N)cc(OC)c1OC	1.1%	.	.
44	?	CC1(c2nnc(Cc3ccccc3)o2)CC(c2cccc(Cl)c2)=NO1 (configuration not stated)	?	-4.6	-0.3%
45	0.0%	O=C(NC(=S)N1CCN(c2ccccc2)CC1)c1ccco1	-1.3%	.	.
46	1.4%	COC(=O)COc1c(/C=C\c2nc(O)c([N+](=O)[O-])c(=O)[nH]2)cccc1OC	1.6%	.	-2.1%
47	4.8%	O=C(NCc1ccco1)c1cc(-c2ccccc2)c(N2CCOCC2)s1	-3.2%	3.5	-0.3%
48	-0.3%	COC(=O)c1onc(-c2c(Cl)cccc2Cl)c1C(=O)OC	-0.1%	-22.4	-2.5%
49	0.8%	CCN(CC)CCNC(=O)c1ccc(-n2c(C)cc3c2CCCC3=O)cc1	0.1%	3.6	-1.3%
50	0.9%	COC(=O)c1ccc(CSc2ncnc3c2oc2ccccc23)o1	1.3%	7.0	-3.0%
51	-7.5%	COc1ccc(-c2nc(C3CCCCC3)c3cc(OC)ccc3n2)cc1	0.2%	.	.
52	-1.2%	CN1C(=O)NC(c2ccccc2)C2=C1CN(Cc1ccco1)C2=O (configuration not stated)	1.9%	8.7	2.9%
53	-0.3%	Cc1[nH]c2ccccc2c1/C=N/NC(=O)c1cccc(F)c1	-5.0%	-10.0	-19.9%
54	-1.7%	Cc1cccc(NC(=S)c2nc3ccccc3s2)c1	-1.7%	-3.0	-41.7%
55	-0.5%	O=C(Cc1cccs1)N(Cc1cccs1)C1(C(=O)NC2CCCCC2)CCCCC1	0.5%	3.4	2.7%
56	14.7%	COc1ccc(NC(=O)N2CCCC(c3nc(-c4ccc(F)cc4)no3)C2)cc1 (configuration not stated)	0.9%	-0.2	-16.9%
57	-12.4%	Cn1c(=O)oc2cc(S(=O)(=O)N3CCCCC3)ccc21	0.7%	.	5.5%
58	-7.3%	CC(C)CN1C(=O)c2ccc(NC(=O)Cc3ccccc3)cc2C1=O	2.0%	1.0	0.1%
59	-11.1%	CC(Sc1nnnn1C)C(=O)Nc1nc(-c2ccc(F)c(F)c2)cs1 (configuration not stated)	-1.4%	.	.
60	-10.4%	CCOC(=O)C1C(=O)CC(C)(O)C(C(=O)OCC)C1c1ccc(NC(C)=O)cc1 (configuration not stated)	-3.0%	2.1	-0.8%
61	-25.6%	Cc1nc(NC(=O)c2ccccc2)sc1-c1csc(NCc2ccco2)n1	-2.0%	-15.9	-7.6%
62	-3.6%	COc1ccc([N+](=O)[O-])cc1N(CC(=O)NC1CCCC1)S(C)(=O)=O	-3.2%	6.6	3.5%
63	-20.2%	Nc1ccc(Cc2ccc(N)c(O)c2)cc1O	-1.0%	5.0	9.4%
64	0.0%	O=C(Nc1ccn(CCCN(CCCn2ccc(NC(=O)OCc3ccccc3)nc2=O)CCc2cc3ccccc3[nH]2)c(=O)n1)OCc1ccccc1	-1.8%	.	.
65	0.0%	O=C(NCc1ccco1)C1CCCN1C(=O)Nc1ccccc1Cl (configuration not stated)	0.5%	7.3	-1.6%
66	3.4%	CCOC(=O)C1CCN(Cc2nc3ccccc3c(=O)n2-c2ccc(F)cc2)CC1	-3.7%	1.0	-3.0%
67	-16.0%	O=c1[nH]c(SCc2ccc(F)cc2)nc2c1cnn2-c1ccc(F)cc1	-3.3%	-3.4	-11.4%
68	24.2%	C/C(=N\OC(=O)Nc1ccc(Cl)cc1)c1ccc(F)c(F)c1	-0.7%	.	-13.1%
69	6.4%	COc1ccc(CC(=O)Oc2ccccc2Cl)cc1S(=O)(=O)N1CCOCC1	-0.8%	.	.
70	-13.9%	O=c1ccnc(SCn2nnc3ccccc3c2=O)[nH]1	4.0%	-3.8	-4.1%
71	3.2%	COc1ccc2[nH]c(=O)c(CN(Cc3cccs3)C(=S)Nc3cccc(C)c3)cc2c1	0.0%	-5.7	0.6%
72	-1.0%	CCn1cc(CN2CCN(C)C(CCO)C2)c2ccccc21 (configuration not stated)	-2.1%	.	-4.9%
73	-2.6%	CC1CCCCN1CCCNC(=O)c1ccc2nc(N3CCCCC3)sc2c1 (configuration not stated)	0.0%	.	-45.0%
74	-15.6%	CC(C)N(C(=S)Nc1cccc(C(F)(F)F)c1)C(C)c1ccccn1 (configuration not stated)	2.9%	-2.3	-0.2%
75	-14.2%	CCOC(=O)C1=C(C)NC(=O)NC1c1cc(C)sc1C (configuration not stated)	3.3%	3.9	-1.9%
76	-13.7%	O=C(O)c1ccc(Cl)c(S(=O)(=O)Nc2ccccc2Cc2ccccc2)c1	-2.1%	.	0.0%
77	8.8%	CN(C)NC(=S)NC(=O)C12CC3CC(CC(C3)C1)C2	-5.2%	-12.0	15.8%
78	-5.0%	CCc1ccccc1NC(=O)CN1CCN(C(=O)CNC(=O)c2ccccc2F)CC1	-2.2%	.	.
79	-4.4%	COc1ccc(CCNC(=O)c2cc3c(cc2Cl)N2CCCCCC2=NS3(=O)=O)cc1	0.5%	.	.
80	-7.4%	CCOc1ccc(C2c3[nH]c4ccccc4c3CCN2Cc2cccn2-c2ncccn2)cc1 (configuration not stated)	-3.4%	-6.0	17.7%

Next part.
#	Rango dissoc inh	SMILES	Rango-impB inh	GLA inh pH 4.5	miR-21 FLuc
81	-9.1%	O=C(Nc1nnc(S(=O)(=O)N2CCCC2)s1)c1ccccc1Br	0.2%	.	-15.3%&-49.8%
82	?	O=C(CN1CCCC1)Nc1ccc(OC(F)(F)F)cc1	-2.0%	.	-15.3%
83	-4.5%	Cc1nc(-c2cccc(NC(=O)c3cccc(S(=O)(=O)N4CCCC4)c3)c2)cs1	-0.5%	.	.
84	-10.2%	CCN1C(=O)[C@@H]2[C@@H](c3ccc(-c4ccc(Cl)c(Cl)c4)cc3)N3CCC[C@@]3(C(=O)OC)[C@@H]2C1=O	1.8%	.	.
85	?	CCc1ccc(NC(=O)C(C)OC(=O)/C=C/c2ccc(O)c(OC)c2)cc1 (configuration not stated)	?	.	.
86	-0.8%	O=C(NCCNC(=O)C1CC2CCC1C2)C1CC2CCC1C2 (configuration not stated)	2.4%	4.2	-4.5%

Not all compounds are listed, so the mix of outcomes need not match the whole.
